# Compound activity from PubChem BioAssay.
# Polio RdRp inh: poliovirus RdRp elongation inhibitors, primary screen, biochemical, fluorescence polarization, total intensity; poliovirus polymerase elongation; active compounds read low; % elongation, % (compound at 16.7 µg/mL); 150,000 compounds, 0.66% hits; AID 588519, 2011; in the data active = % elongation below about 90%; note: some results filed as inactive read as strong as hits
# Target sequence (P03300 1749-2209 limits assumed): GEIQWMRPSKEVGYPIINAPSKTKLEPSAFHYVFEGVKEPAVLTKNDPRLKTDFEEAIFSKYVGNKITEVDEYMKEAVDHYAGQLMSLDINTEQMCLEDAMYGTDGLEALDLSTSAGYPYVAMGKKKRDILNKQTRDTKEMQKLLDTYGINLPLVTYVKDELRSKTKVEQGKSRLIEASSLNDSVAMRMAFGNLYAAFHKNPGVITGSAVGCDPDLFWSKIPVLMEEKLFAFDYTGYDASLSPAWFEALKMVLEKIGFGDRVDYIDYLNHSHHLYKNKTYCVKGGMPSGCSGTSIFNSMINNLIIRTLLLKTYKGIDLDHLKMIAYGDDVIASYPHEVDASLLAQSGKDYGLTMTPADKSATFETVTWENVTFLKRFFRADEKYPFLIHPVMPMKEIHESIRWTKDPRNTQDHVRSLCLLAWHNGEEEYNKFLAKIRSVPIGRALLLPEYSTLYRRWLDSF
# Polio RdRp inh intensity: second read-out of Polio RdRp inh, no call of its own (marks repeat the call); % elongation; measured here: total intensity read-out; formula for this scale not given here;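 total fluorescence in place of polarization; lower means less elongation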
# * marks the source's active call; other numbers are inactive results. The list is partial; count on the stated rates, not on these rows.
entry | SMILES | Polio RdRp inh intensity | Polio RdRp inh
1 | Cc1ccc(C)c(N2CCN(C(=O)CN3C(=O)COc4ccc(S(=O)(=O)N5CCOCC5)cc43)CC2)c1 | 106 | 104
2 | CCOC(=O)c1ccc(NC(=O)c2c(NCc3cccc(OC)c3OC)sc3c2CCC3)cc1 | 117 | 112
3 | COc1ccc(NC(=O)CCN2CCN(CCO)CC2)cc1 | 101 | 104
4 | O=C(NCc1ccc(Cl)cc1Cl)c1cccc(N2CCCS2(=O)=O)c1 | 107 | 105
5 | COc1ccc(NC(=O)C2=C(C)Nc3c(C(=O)Nc4ccc(C)cc4)cnn3C2c2cc(OC)ccc2OC)cc1 (stereo not given) | 112 | 108
6 | CCOC(=O)c1ccc2nc(C)cc(Nc3ccc(OC(C)C)cc3)c2c1 | 98 | 102
7 | CCc1cccc(NC(=O)C2CCC(CNS(=O)(=O)c3csc(C(N)=O)c3)CC2)c1 (stereo not given) | 112 | 106
8 | CCOC(=O)c1sc(NC(=O)C2c3ccccc3Oc3ccccc32)c(C#N)c1C | 76* | 76*
9 | CN1C(=O)c2ccccc2Sc2ccc(NC(=O)COc3ccc(Cl)cc3)cc21 | 102 | 101
10 | CCOc1ccc(C2=C(C(C)=O)Sc3nnc(C)n3N2C(C)=O)cc1 | 79* | 79*
11 | Cc1ccc(OCC(=O)OCc2cc(=O)n3nc(-c4cccs4)sc3n2)cc1C | 115 | 114
12 | Nc1c(-c2nc(-c3ccccc3Cl)no2)nnn1-c1ccccc1F | 125 | 123
13 | Cc1ccc(OCCCSc2nc(-c3ccc(C(C)(C)C)cc3)nc3cc(=O)[nH]n23)cc1C | 103 | 103
14 | CCC1CN(C(=O)NCc2ccc(C)cc2)c2ccccc2O1 (stereo not given) | 100 | 105
15 | CC(C)C(NS(=O)(=O)c1ccc2c(c1)oc(=O)n2C)C(=O)NCCc1ccccc1 (stereo not given) | 103 | 104
16 | COC(=O)CN1C(C(=O)c2ccccc2)=C(OC(=O)c2ccc(C)cc2)c2ccccc2S1(=O)=O | 108 | 105
17 | Cc1ccc(NC(=O)CN2C(=O)CCc3cc(S(=O)(=O)N4CCOCC4)ccc32)cc1N(C)C | 113 | 106
18 | CCN(CC)CCN(C(=O)c1ccco1)c1nc2cc(C)cc(C)c2s1 | 93 | 94
19 | COc1ccc(OCC(=O)N(Cc2sccc2C)C2CCS(=O)(=O)C2)cc1 (stereo not given) | 115 | 114
20 | CCc1nc2ccccc2n2c(-c3ccc(C)cc3)c3c(=O)n(C)c(=O)n(C)c3c12 | 109 | 105
21 | Cc1cc(C)n(-c2nc3ccccc3nc2Nc2ccc(Cl)c(C(=O)OC(C)C)c2)n1 | 111 | 106
22 | COc1ccc(-c2csc(-c3c(N)c(C(=O)c4ccc(OC)c(OC)c4)n4ccccc34)n2)cc1 | 108 | 105
23 | CC1CCN(C(=O)c2cc3c(=O)n(C)c4ccccc4c3s2)CC1 | 103 | 101
24 | COc1cccc(CNS(=O)(=O)c2cc3[nH]c(=O)c(=O)[nH]c3cc2C)c1 | 111 | 110
25 | CCCC12CN3CC(C)(CN(C1)C3c1c(C)[nH]c(=O)[nH]c1=O)C2=O (stereo not given) | 104 | 105
26 | COC(=O)c1ccc(NC(=O)CN2C(=O)CC(c3ccccc3)Sc3ccccc32)cc1 (stereo not given) | 112 | 103
27 | Cc1ccc(Nc2c(-c3ccsc3)nc3cccc(C)n23)cc1 | 116 | 113
28 | COc1cc(NC(=O)c2cc3c(=O)oc4ccc(C)cc4c3s2)cc(OC)c1OC | 104 | 103
29 | CCOc1ccc2nc(N3CCCC(C(=O)Nc4cc(Cl)c(OC)cc4OC)C3)sc2c1 (stereo not given) | 104 | 104
30 | CCC(=O)N1CCN(c2nc3c(C)cccc3s2)CC1 | 113 | 106

# Looked up above:
# entry 26 – Polio RdRp inh = 103
# entry 20 – Polio RdRp inh intensity = 109
# entry 15 – Polio RdRp inh = 104
# entry 30 – Polio RdRp inh intensity = 113
# entry 2 – Polio RdRp inh = 112
# entry 13 – Polio RdRp inh intensity = 103

# The main list resumes; the 5 compounds before the break are reprinted first.
entry | SMILES | Polio RdRp inh intensity | Polio RdRp inh
26 | COC(=O)c1ccc(NC(=O)CN2C(=O)CC(c3ccccc3)Sc3ccccc32)cc1 (stereo not given) | 112 | 103
27 | Cc1ccc(Nc2c(-c3ccsc3)nc3cccc(C)n23)cc1 | 116 | 113
28 | COc1cc(NC(=O)c2cc3c(=O)oc4ccc(C)cc4c3s2)cc(OC)c1OC | 104 | 103
29 | CCOc1ccc2nc(N3CCCC(C(=O)Nc4cc(Cl)c(OC)cc4OC)C3)sc2c1 (stereo not given) | 104 | 104
30 | CCC(=O)N1CCN(c2nc3c(C)cccc3s2)CC1 | 113 | 106
31 | CCCC(=O)Nc1nnc(SCc2cc(=O)n3ccccc3n2)s1 | 109 | 110
32 | CC1=C(c2ccc(C(C)C)cc2)S(=O)(=O)N=C1N1CCC(C(=O)Nc2ccc(C)cc2)CC1 | 105 | 110
33 | CCOc1ccc(-c2c(C)nn3c(C)c(C(=O)Nc4cccc(Cl)c4C)cnc23)cc1OCC | 109 | 106
34 | CC(C)(C)C(=O)Nc1nnc2n1CCS2 | 103 | 107
35 | COc1ccc(-c2csc3nc(-c4ccc(Cl)cc4)oc(=O)c23)cc1 | 112 | 108
36 | COc1ccc(C(=O)COC(=O)CCCC(=O)Nc2cc(C(F)(F)F)ccc2Cl)cc1 | 112 | 109
37 | Cc1ccc(Cn2c(=O)c3c(nc4n3CCN4c3cc(C)cc(C)c3)n(C)c2=O)cc1 | 110 | 106
38 | O=C(Nc1cc(-c2cccc(Cl)c2)nn1-c1ccccc1)c1ccccc1F | 113 | 106
39 | COc1ccc(Cn2c(=O)[nH]c3cc(C(=O)N4CCN(c5cccc(Cl)c5)CC4)ccc3c2=O)cc1 | 106 | 101
40 | COc1ccc(C)cc1NC(=O)C1CCCN(S(=O)(=O)c2ccc3[nH]c(=O)ccc3c2)C1 (stereo not given) | 115 | 112
41 | O=S(=O)(c1cccs1)N1CCN(c2ccc(Cl)cc2)CC1 | 105 | 102
42 | Cc1ccc(NC(=O)C(=O)NCC2(c3ccccc3)CCCC2)cc1C | 110 | 106
43 | COc1ccc(C2C=C(c3ccccc3)Nc3nc(NS(=O)(=O)c4ccc(Cl)cc4)nn32)cc1 (stereo not given) | 138 | 104
44 | COc1ccc(CCN2C(=O)N(c3ccc(C)cc3)C(=O)C2CC(=O)Nc2ccc(OC)cc2)cc1 (stereo not given) | 107 | 105
45 | COc1ccc(NC(=O)Cn2c(=O)oc3cc(S(=O)(=O)NC(C)C)ccc32)cc1OC | 103 | 105
46 | CCOC(=O)Cn1c(=O)n(-c2ccccc2OC)c2nc(-c3ccc(C(C)C)cc3)nc(C(N)=O)c21 | 105 | 101
47 | CCn1c(CNC(=O)c2ccc(OC)cc2)nnc1SCC(=O)Nc1cccc(C)c1 | 106 | 106
48 | CCOC(=O)c1c(NC(=O)CSc2cn(CCNC(=O)c3ccccc3F)c3ccccc23)sc2c1CCCC2 | 103 | 99
49 | CC1=C(C(=O)OC2CCCC2)C(c2ccc(Cl)cc2)CC(=O)N1 (stereo not given) | 111 | 108
50 | COc1ccc(-c2onc(C)c2C)cc1S(=O)(=O)NCC1CCN(Cc2ccccc2F)CC1 | 106 | 103
51 | O=C(NCc1ccco1)c1ccc(Cn2c(SCc3ccc(F)cc3)nc3cccnc32)cc1 | 107 | 104
52 | CCN(Cc1ccccc1)C(=O)c1nc(-c2cccc(F)c2)n2c1CCCCC2 | 105 | 105
53 | COc1ccccc1NC(=O)C1CCN(S(=O)(=O)c2ccc3c(c2)oc(=O)n3C)CC1 | 109 | 104
54 | Cc1ccc(Nc2nc(Nc3ccc(C)c(C)c3)nc(N3CCOCC3)n2)cc1C | 111 | 109
55 | Cn1c(=O)oc2cc(S(=O)(=O)N3CCC(C(=O)N4CCN(c5cccc(Cl)c5)CC4)CC3)ccc21 | 106 | 104
56 | CCCCNC(=O)c1ccc2c(=O)n(-c3ccccc3)c(=O)[nH]c2c1 | 112 | 107
57 | COc1ccc(CC(=O)Nc2nnc3n2CCS3)cc1 | 96 | 107
58 | Cn1ncc(C(=O)N2CCN(c3ccccc3)CC2)c1C1CCN(C(=O)OC(C)(C)C)CC1 | 108 | 107
59 | Cc1ccc2cc3cc(C(=O)Nc4ccc(F)cc4Cl)oc3nc2c1 | 116 | 97
60 | Cc1cc(C)cc(NC(=O)C2CCCN2S(=O)(=O)c2ccc3c(c2)CCCC(=O)N3)c1 (stereo not given) | 110 | 110

# Complete entries as entered above. Order of values: Polio RdRp inh intensity	Polio RdRp inh
# O=C(Nc1cc(-c2cccc(Cl)c2)nn1-c1ccccc1)c1ccccc1F is listed as 113	106
# CC(C)(C)C(=O)Nc1nnc2n1CCS2 is listed as 103	107
# COc1ccc(-c2csc3nc(-c4ccc(Cl)cc4)oc(=O)c23)cc1 is listed as 112	108
# O=S(=O)(c1cccs1)N1CCN(c2ccc(Cl)cc2)CC1 is listed as 105	102
# CCOc1ccc(-c2c(C)nn3c(C)c(C(=O)Nc4cccc(Cl)c4C)cnc23)cc1OCC is listed as 109	106

# Continued.
entry | SMILES | Polio RdRp inh intensity | Polio RdRp inh
61 | CCCOc1ccccc1C1Oc2nc(SC)nnc2-c2ccccc2N1C(C)=O (stereo not given) | 111 | 107
62 | CCOc1ccc(NC(=O)CSc2cn(CCNC(=O)c3ccccc3F)c3ccccc23)cc1 | 111 | 108
63 | COc1cccc(C2C(C(=O)Nc3cccnc3)=C(C)Nc3nc(SCc4ccccc4)nn32)c1 (stereo not given) | 110 | 110
64 | CCCc1nn2c(=O)cc(COC(=O)c3cccc(NC(=O)COc4ccccc4C)c3)nc2s1 | 112 | 104
65 | CCc1ccc(S(=O)(=O)c2nnn3c2nc(NC(C)C)c2cc(Cl)ccc23)cc1 | 106 | 103
66 | CCn1cc(C(=O)Nc2cccc(Cl)c2)c2cc(OC)c(OC)cc2c1=O | 111 | 108
67 | Cc1ccc(CCNC(=O)c2cc3c(=O)oc4ccccc4c3s2)cc1 | 111 | 106
68 | CCc1cccc(NC(=O)CSc2n[nH]c(-c3ccccc3Cl)n2)c1 | 105 | 103
69 | CCOc1ccc(-c2cc(C(=O)N3CCN(S(=O)(=O)c4cc(Cl)ccc4OC)CC3)[nH]n2)cc1 | 110 | 110
70 | O=C(Cn1c(=O)n(-c2ccc(F)cc2)c(=O)c2sc3ccccc3c21)N1CCCC1 | 105 | 105
71 | COC(=O)c1ccc(NC(=O)NCCn2nnc3cc(S(=O)(=O)N(C)C)ccc32)cc1 | 112 | 104
72 | CCN(CC)CCNC(=O)c1cc(-c2ccc(Br)s2)nc2ccccc12 | 104 | 104
73 | Cc1ccc2nc(-c3ccc(NC(=O)c4ccc(S(C)(=O)=O)cc4)cc3)sc2c1 | 113 | 109
74 | CCSc1ncc(Cl)c(C(=O)N2CCN(c3ccccc3OC)CC2)n1 | 121 | 121
75 | CCc1ccc2occ(CC(=O)Nc3ccccc3C(F)(F)F)c2c1 | 115 | 116
76 | CCOc1ccc(-c2nc(CSCC(=O)N3CCN(c4cccc(C(F)(F)F)c4)CC3)c(C)o2)cc1 | 109 | 104
77 | Cc1nc2nc(SCc3ccc(F)cc3Cl)nn2c(C)c1Cc1ccccc1 | 116 | 112
78 | Cc1cccc2sc(N(Cc3cccnc3)C(=O)c3ccco3)nc12 | 110 | 109
79 | Cc1ccc(C)c(Cn2c(=O)cc(C)c3c(C)nn(C)c32)c1 | 114 | 110
80 | Cc1ccc(-c2cn(-c3cccc(Cl)c3)c(S(=O)(=O)CC(=O)Nc3cccc(C)c3)n2)cc1 | 105 | 103
81 | Cc1ccc(S(=O)(=O)N2CCN(Cc3nc4ccc(C)cc4o3)CC2)cc1 | 115 | 105
82 | COc1ccccc1C(=O)Nc1ccc2nc(N3CCC(C)CC3)cc(C)c2c1 | 108 | 106
83 | Cc1ccc(Cc2c(C)nc3nc(SCC(=O)NC(C)c4ccccc4)nn3c2C)cc1 (stereo not given) | 106 | 102
84 | COc1cc(Cl)c(C)cc1NC(=O)c1cnc(N2CCOCC2)c2ccccc12 | 112 | 103
85 | CC(=O)Nc1nonc1-c1nnc(SCC(=O)Nc2cccc(F)c2)n1-c1ccccc1 | 108 | 108
86 | O=C(Nc1cccc(C(F)(F)F)c1)Nc1cccs1 | 114 | 110
87 | Cc1ccccc1NC(=O)CCS(=O)(=O)c1cc(Br)cc2c1N(C(=O)C1CC1)CC2 | 110 | 105
88 | CCCn1c(=N)c(C(=O)NC2CCCCC2)cc2c(=O)n3cc(C)ccc3nc21 | 110 | 108
89 | CCCNC(=O)COCc1cc(-c2ccc(F)cc2)on1 | 103 | 100
90 | CCOc1ccccc1NC(=O)Cn1nnc(C(=O)NCc2ccc(F)cc2)c1N | 113 | 114
